# Vif TR-FRET: inhibitors of Vif binding to APOBEC3G peptide, primary screen, biochemical, TR-FRET, GST-Vif 1-94, biotin-A3G peptide, dose response retest (AID 1117319); TR-FRET GST-Vif / biotin-A3G peptide binding; higher % means a stronger effect; test concentration not given here; strong numbers were not always called active; one-dose inhibition, %; IC50 in µM for titrated hits; actives 0.57% (n = 260,000);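 active = above the screen mean plus three standard deviations and confirmed in dose response; inconclusive = results disagree or hit not tested in dose response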;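 note: Vif residues 1-94 fused to GST binding biotinylated APOBEC3G peptide 110-148; 0% = full assay without inhibitor and 100% = GST in place of GST-Vif; retest series ran down from 100 µM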
# Calb FLC: affects C. albicans growth with fluconazole | AID 1979 | C. albicans CaCi-2 (fluconazole-resistant clinical isolate) + fluconazole, Alamar Blue growth, 48 h | growth inhibition, % (test concentration not listed) | actives 0.57% (n = 300,000);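 active = most replicates above 75%; inconclusive = exactly half above 75%; inactive = most below 75%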;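 note: all wells also contain fluconazole at 8 µg/ml as a sub-toxic cotreatment; 0% = median of DMSO wells and 100% = median of geldanamycin control wells; wells of about 8 µL received 7.5 nL stock; the first replicate is given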
# RanGTP-Imp inh: disruptors of Ran-importin-beta complex formation – biochemical, FRET, CFP-Ran, YFP-importin-beta, homogeneous, primary screen; cell-free CFP-Ran/YFP-importin-beta FRET ratio; inhibition, % (concentration not given with the values); actives 1.1% (n = 300,000);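 active = most replicates above 15%; inconclusive = exactly half above 15%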;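 note: 0% = DMSO wells and 100% = Ran loaded with GDP instead of GTP; wells of about 40 µL received 100 nL stock; the first replicate is given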
# LANA-H2A inh: blocks KSHV LANA binding to histone H2A/H2B. cell-free LANA-H2A/H2B peptide, fluorescence polarization. inhibition, % (no concentration beside the values). actives 0.6% (n = 320,000). AID 2629; in the data active = inhibition mostly above about 10%, no sharp cut-off; inactive = mostly below about 6.7%;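 note: stock transfer was 7.5 nL into about 10 µL; 0% = median of vehicle wells and 100% = median of positive control wells; one replicate is shown; the record names a cut of 25% in any replicate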
# Target sequence (Q9QR71 whole entry, looked up): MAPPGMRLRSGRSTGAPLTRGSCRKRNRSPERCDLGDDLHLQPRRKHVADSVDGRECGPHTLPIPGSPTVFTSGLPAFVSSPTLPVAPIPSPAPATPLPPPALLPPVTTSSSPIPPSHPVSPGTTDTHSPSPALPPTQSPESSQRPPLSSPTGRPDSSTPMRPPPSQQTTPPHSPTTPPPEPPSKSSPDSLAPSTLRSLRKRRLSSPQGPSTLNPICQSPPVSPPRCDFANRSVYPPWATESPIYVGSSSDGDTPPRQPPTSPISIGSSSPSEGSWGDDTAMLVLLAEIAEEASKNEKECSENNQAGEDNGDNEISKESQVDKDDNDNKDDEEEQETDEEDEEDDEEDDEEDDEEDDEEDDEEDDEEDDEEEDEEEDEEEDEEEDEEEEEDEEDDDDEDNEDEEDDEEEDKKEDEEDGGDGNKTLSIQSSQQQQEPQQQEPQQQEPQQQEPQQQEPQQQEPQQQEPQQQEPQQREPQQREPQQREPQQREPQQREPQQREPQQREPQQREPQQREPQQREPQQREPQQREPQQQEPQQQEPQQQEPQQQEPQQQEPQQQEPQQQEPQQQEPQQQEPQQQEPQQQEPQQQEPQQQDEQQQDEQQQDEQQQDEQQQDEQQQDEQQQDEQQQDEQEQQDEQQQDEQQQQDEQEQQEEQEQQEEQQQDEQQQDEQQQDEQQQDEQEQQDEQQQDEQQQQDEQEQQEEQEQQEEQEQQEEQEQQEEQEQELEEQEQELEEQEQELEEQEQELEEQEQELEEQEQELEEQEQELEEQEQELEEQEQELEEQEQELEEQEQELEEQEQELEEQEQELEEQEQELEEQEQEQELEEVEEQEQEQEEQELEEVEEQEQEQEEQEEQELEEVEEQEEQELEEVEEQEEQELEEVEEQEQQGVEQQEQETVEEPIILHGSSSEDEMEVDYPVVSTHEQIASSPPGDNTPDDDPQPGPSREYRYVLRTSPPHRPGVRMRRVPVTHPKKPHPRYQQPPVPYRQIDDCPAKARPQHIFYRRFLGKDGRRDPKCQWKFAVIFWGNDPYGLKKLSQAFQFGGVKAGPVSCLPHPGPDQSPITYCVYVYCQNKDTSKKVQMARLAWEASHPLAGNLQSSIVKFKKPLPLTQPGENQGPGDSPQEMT
# T cruzi inh: T. cruzi replication inhibition; T. cruzi beta-gal in NIH3T3, luminescence, 90 h; actives 1.4% (n = 300,000); inhibition, % (no concentration beside the values);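 active = mean inhibition across valid replicates above about 55%, limit read from the data; inconclusive = mean below that limit but half or more replicates reach it; inactive = mean below it, under half of replicates reach it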;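 note: signal also drops with host cell toxicity which is not excluded here; 0% = plate median of DMSO wells and 100% = zero luminescence signal; higher percent means less beta-gal luminescence so fewer parasites; stock transfer was 50 nL into about 50 µL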
# Bfl-1 A1 inh: inhibitors of the anti-apoptotic protein A1, read as caspase activation; actives 0.066% (n = 330,000); MEF A1-2A-BIM cells, Caspase-Glo 3/7 luminescence, 3 h; percent of clofoctol response, vehicle zero; caspase activation, % (no concentration beside the values);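 active = over half of replicate activation scores above 10%, or exactly half above 10 with the replicate mean above 10; inconclusive = replicate mean below 10 yet half the replicates above 10; inactive = over half of replicates below 10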;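 note: wells of about 30 µL received 50 nL stock; many hits fall short of the cut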
# Beta cell apopt: blocks beta cell apoptosis. INS-1E cytokine-induced death, ATP luminescence, 48 h; percent of positive-control rescue, neutral wells zero. protection from apoptosis, % (test concentration not listed). actives 0.8% (n = 300,000);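 active = all replicates at 75% or more, or half of them and the mean; inconclusive = half reach 75% but not the mean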;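 note: 0% = cytokine-treated negative control wells and 100% = positive control rescue; higher means more ATP so stronger rescue from cytokine killing; wells of about 40 µL received 100 nL stock; the first replicate is given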
# MLL AF4-AF9 inh: inhibitors of human MLL-AF4/AF9 interaction | AlphaScreen, biotin-AF4 peptide binding to FLAG-AF9 | P42568 | actives 0.47% (n = 350,000) | inhibition, % at 10 µM;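 active = every replicate reaching a set inhibition limit, whatever the replicate mean, cut at about 25% in these data; inconclusive = mean inhibition reaches that limit but some replicates miss it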;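 note: 0% = plate neutral control median and 100% = total signal loss; the record names both 10 and 1 µM as test concentration; the first replicate is given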
# The depositor's hits bear a star; ? = inconclusive; . = no result given.
SMILES,Vif TR-FRET,Calb FLC,RanGTP-Imp inh,LANA-H2A inh,T cruzi inh,Bfl-1 A1 inh,Beta cell apopt,MLL AF4-AF9 inh
Cn1c(CCNC(=O)c2ccco2)nc2cc([N+](=O)[O-])ccc21,-4.1%,4.1,1.2,-6.7,-7.3,0.3,-9.8,-0.5
Cc1ccc(NC(=S)NCc2ccccc2)cc1S(=O)(=O)N1CCCCC1,4.0%,-9.4,-1.3,2.1,7.2,-1.0,-5.2,3.3
CCOC(=O)N1CCN(C(=O)CSc2nnc(CNC(=O)c3c(F)cccc3Cl)o2)CC1,31.4%,-5.5,3.6,1.2,0.4,-0.6,-3.6,.
COC(=O)CSc1nnc(-c2ccncc2)n1N,20.3%,18.1,-5.1,5.6,0.2,0.2,-1.7,.
Cc1noc(C)c1COC(=O)CCCNC(=O)c1ccc(Cl)cc1,-5.6%,-3.7,-0.2,-4.1,-4.9,-1.8,1.0,-3.1
Cc1ccc(OCC(=O)NC2CCS(=O)(=O)C2)c(C)c1 (stereo not drawn),.,3.6,-0.8,3.5,-4.0,1.2,-1.3,-1.0
CCC1(CC)C(=O)NC(=O)NC1=Nc1cccc(OC)c1,3.4%,-4.4,-1.7,1.5,-5.1,-0.2,-6.5,.
COCCN(CCOc1cc(C)cc(C)c1)Cc1ccc(Cl)cc1,20.0%,-1.2,-0.7,-4.9,10.5,1.5,0.0,-4.0
CO/N=C(/CNC(=O)c1cccc(Cl)c1)c1ccc(Cl)cc1,25.6%,?,0.9,-1.9,8.8,1.0,-7.5,.
COc1ccc(NC(=O)c2cc3c(=O)n(C)c4ccccc4c3n2C)cc1Cl,22.7%,-8.6,1.7,0.5,-8.4,0.4,10.3,1.5
CC1(C)Cc2c(cnn2-c2cccc(F)c2)C(NC(=O)CSc2ccccn2)C1 (stereo not drawn),.,9.3,9.1,-4.2,6.4,0.6,1.1,0.1
CCn1ncc(C2=NOC(C(=O)NCC(C)C)C2)c1C (stereo not drawn),10.4%,5.8,1.8,-4.2,-3.6,-0.3,-2.0,.

# Given with each value named: 2 of the compounds above.
Cc1ccc(NC(=S)NCc2ccccc2)cc1S(=O)(=O)N1CCCCC1
- Vif TR-FRET: 4.0%
- Calb FLC: -9.4
- RanGTP-Imp inh: -1.3
- LANA-H2A inh: 2.1
- T cruzi inh: 7.2
- Bfl-1 A1 inh: -1.0
- Beta cell apopt: -5.2
- MLL AF4-AF9 inh: 3.3
CCOC(=O)N1CCN(C(=O)CSc2nnc(CNC(=O)c3c(F)cccc3Cl)o2)CC1
- Vif TR-FRET: 31.4%
- Calb FLC: -5.5
- RanGTP-Imp inh: 3.6
- LANA-H2A inh: 1.2
- T cruzi inh: 0.4
- Bfl-1 A1 inh: -0.6
- Beta cell apopt: -3.6
- MLL AF4-AF9 inh: .

# The list goes on.
SMILES,Vif TR-FRET,Calb FLC,RanGTP-Imp inh,LANA-H2A inh,T cruzi inh,Bfl-1 A1 inh,Beta cell apopt,MLL AF4-AF9 inh
COc1ccc(CN(CC(=O)NCc2ccccc2)C(=O)CCC(=O)Nc2nccs2)cc1,.,-2.2,-4.9,-1.5,5.0,-0.1,-7.9,-1.8
COc1ccc2cc(C(=O)N3CCN(c4ccccc4OC)CC3)[nH]c2c1,7.7%,1.8,1.3,4.4,-6.1,-0.1,-10.3,0.5
CC(=O)Nc1sc(N/N=C\c2ccc(O)cc2)nc1-c1cccs1,27.6%,3.9,3.9,5.6,-9.1,-1.4,-4.0,3.3
CC(C)(C)SCCNC(=O)CN1C(=O)c2ccccc2S1(=O)=O,-2.3%,2.9,-1.7,-5.4,-0.4,0.2,.,3.2
Cc1ccc(NC(=O)CSc2ccc3c(c2)OCCO3)nc1,-5.4%,-12.0,0.9,3.8,-10.3,1.4,.,3.1
COC(=O)CSc1nnc(COc2ccc([N+](=O)[O-])cc2)n1C,-3.2%,3.9,3.1,3.5,8.5,0.6,.,-3.5
COc1ccc(C2C(C#N)=C(N)Oc3cc(C)n(Cc4ccco4)c(=O)c32)cc1 (stereo not drawn),19.8%,-15.9,-5.5,2.9,-4.5,0.6,.,.
O=C(CN(C(=O)CNS(=O)(=O)c1ccc(F)cc1)c1ccccc1)NCc1ccco1,8.1%,1.9,-5.6,-10.0,-12.2,-0.1,0.8,1.1
CCCN(CCC)c1nc(C)cc(C(C#N)c2nc3ccccc3o2)n1 (stereo not drawn),0.1%,3.9,8.6,2.3,-4.5,0.8,-6.2,.
COc1ccccc1N1CCN(/N=C/c2cccc(O)c2)CC1,-6.6%,5.0,1.8,-2.8,2.1,-0.8,2.2,8.9
Cc1cc(NS(=O)(=O)c2ccc(NC(=O)COc3cc(C)c(Cl)c(C)c3)cc2)no1,-8.3%,.,.,.,.,-0.5,-1.9,-0.5
CCNC(=S)N/N=C/c1cc(Br)cc(Br)c1OC,0.7%,-14.8,6.7,-6.5,9.7,0.2,-6.4,.
O=C(c1ccccc1)N1N=C(c2ccc(F)cc2)CC1(O)C(F)(F)F (stereo not drawn),.,-16.7,-0.2,-6.3,-10.2,0.9,-2.6,-2.5
CCN(CC)S(=O)(=O)c1ccc(N2CCCC2)c(NC(=O)c2nn(C)c(=O)c3ccccc23)c1,.,.,.,-2.5,.,1.0,14.8,8.3
CC(C)N(Cc1nc(-c2ccccc2)no1)C(=O)C1CCCCC1,0.8%,-0.9,-1.8,-2.4,11.1,0.1,-1.7,6.6
CCOCCCNC(=O)CN1C(=O)CSc2ccccc21,9.7%,-1.8,-4.8,-2.2,0.6,-0.8,-2.9,1.8
O=C(O)c1cccc(COc2ccc3c(c2)CCC3)c1,2.9%,8.2,2.7,2.7,-12.3,-7.7,-3.2,.
Cc1cccc(N2CCN(Cc3cn(C)nc3-c3ccccc3F)CC2)n1,-6.5%,-2.6,3.9,-2.6,-63.9,0.8,26.3,4.2
COc1cc2c(cc1NC(=O)CSc1nc3ccccc3[nH]1)oc1ccccc12,6.3%,-4.0,?,-2.8,31.9,0.6,9.1,.
Cc1nc2ccc(NC(=O)c3ccc4ccccc4n3)cc2s1,.,9.3,-3.6,1.8,-4.2,-5.9,4.6,-1.5
N#CCCn1nnc2ccccc21,-8.7%,-6.2,2.4,0.4,-3.9,0.4,.,.
Cc1ccc(OCC(=O)NNC(=O)c2cc(C)[nH]n2)cc1,-3.0%,2.7,?,3.6,-20.4,-0.3,-5.6,.
CC(=O)c1c(C)[nH]c(C(=O)OCc2ccc([N+](=O)[O-])cc2)c1C,.,-10.1,-2.7,-5.0,24.7,-0.2,2.0,-0.5
CC(C)CC(=O)NC(=S)Nc1cccc(NC(=O)c2ccccc2)c1,-4.4%,24.6,-1.3,-6.3,-12.2,-0.2,-6.0,2.3
O=C(N/C(=C/c1cccc(Br)c1)c1nc(=S)[nH][nH]1)c1ccccc1,.,-5.8,4.8,7.8,-0.8,1.0,-8.9,.
CCC(C)[C@H]1COCCS(=O)(=O)N1Cc1ccc(Cl)cc1Cl (stereo partly drawn),.,12.1,-4.5,0.5,-4.1,-0.8,4.4,-4.4
O=C(CCCn1cncn1)N1CCCC(Nc2ccc(F)cc2)C1 (stereo not drawn),.,?,-1.2,-3.5,-0.3,-0.5,-8.1,-1.0
COc1ccc(N2CCN(C(CNC(=O)COc3ccccc3)c3ccco3)CC2)cc1 (stereo not drawn),3.7%,0.5,-1.1,5.0,4.3,0.0,1.7,?
O=C(c1ccco1)N1CCN(S(=O)(=O)Cc2ccc(Cl)cc2)CC1,0.9%,4.9,-6.3,0.4,-1.1,0.5,1.8,.
CCOC(=O)c1[nH]c2ccccc2c1NC(=O)CCN1CC(C)OC(C)C1 (stereo not drawn),-0.3%,-0.1,0.3,2.4,7.3,1.4,-5.1,.
COc1ccc(CCNC(=O)c2ccc(OCc3c(C)noc3C)c(OC)c2)cc1,-1.9%,.,.,-0.7,.,1.3,-0.8,-1.9
COc1cc2c(cc1OC)CN(C(=S)Nc1ccc(C)cc1C)CC2,.,-5.4,?,-1.4,9.3,0.2,1.1,.
O=C(/C=C/c1cccc(Br)c1)NC1CCN(Cc2ccccc2)CC1,-6.2%,-6.0,?,0.3,40.7,1.3,-2.9,2.2
O=C(COC(=O)CCC(=O)c1cccs1)Nc1ccccc1C(F)(F)F,.,.,.,-8.2,.,-0.7,-1.9,1.9
COc1ccc(NC(=S)N2CCN(c3ccccc3)CC2)c(OC)c1,.,-9.5,1.4,0.0,-3.4,0.2,.,3.5
O=C1OC(/C=C/c2ccccc2)=NC/1=C/c1ccco1,31.3%,-1.5,0.9,-0.1,-18.3,0.4,-9.1,2.0

# In the list so far, these have a cyano group.
SMILES,Vif TR-FRET,Calb FLC,RanGTP-Imp inh,LANA-H2A inh,T cruzi inh,Bfl-1 A1 inh,Beta cell apopt,MLL AF4-AF9 inh
COc1ccc(C2C(C#N)=C(N)Oc3cc(C)n(Cc4ccco4)c(=O)c32)cc1 (stereo not drawn),19.8%,-15.9,-5.5,2.9,-4.5,0.6,.,.
CCCN(CCC)c1nc(C)cc(C(C#N)c2nc3ccccc3o2)n1 (stereo not drawn),0.1%,3.9,8.6,2.3,-4.5,0.8,-6.2,.
N#CCCn1nnc2ccccc21,-8.7%,-6.2,2.4,0.4,-3.9,0.4,.,.

# Going on with the list.
SMILES,Vif TR-FRET,Calb FLC,RanGTP-Imp inh,LANA-H2A inh,T cruzi inh,Bfl-1 A1 inh,Beta cell apopt,MLL AF4-AF9 inh
COc1ccccc1C(=O)Nc1ccc(C2=NNC(=O)CC2C)cc1 (stereo not drawn),3.5%,-9.8,?,1.0,-5.5,-0.6,12.9,.
COc1cccc(NC(=O)c2sc3ncn(CC(=O)N4CCN(c5ccccn5)CC4)c(=O)c3c2C)c1,-2.3%,-1.7,-1.0,1.1,-1.0,0.1,-1.8,0.5
COc1cc2cc(CN(Cc3cccnc3)C(=O)NCc3ccccc3)c(=O)[nH]c2cc1OC,-1.0%,2.5,-0.1,3.8,-12.7,-0.1,-0.5,.
Oc1[nH]c2ccccc2c1N=Nc1c(F)c(F)c(Cl)c(F)c1F,2.5%,-5.7,0.7,-2.2,-4.8,-2.0,0.3,3.7
CC1=NN(C(=O)c2ccc(Cn3cc([N+](=O)[O-])cn3)cc2)C(O)(C(F)(F)F)C1 (stereo not drawn),.,-11.8,-1.7,-1.9,-1.6,0.1,-2.7,-0.9
Cn1c(Cl)cnc1C1CC(=O)c2cc(Cl)ccc2O1 (stereo not drawn),2.6%,-7.9,0.8,1.7,5.3,0.7,15.1,.
COc1ccc(/C=C/C(=O)OCC(=O)NCc2ccco2)cc1OC,6.4%,-2.1,-3.4,4.8,-22.9,0.2,-15.5,.
Cc1ccc(N(C(=O)c2csnn2)C(C(=O)NC2CCCCC2)c2ccncc2)c(C)c1 (stereo not drawn),.,-3.3,0.2,-1.9,15.7,2.5,2.7,-1.2
CC1CCCCC1NC(=O)COC(=O)COc1ccccc1Cl (stereo not drawn),-0.9%,?,0.8,2.4,-4.6,0.1,-4.1,0.9
Cc1nonc1NC(=O)c1ccccc1Br,2.0%,19.3,1.7,-2.4,-7.5,0.0,3.3,.
COc1cccc(CN2CCN(Cc3nc(-c4cccs4)oc3C)CC2CCO)c1 (stereo not drawn),6.3%,?,2.5,2.5,6.4,0.5,3.5,-0.4
